Compound activity as filed in PubChem BioAssay.
ALR inh: human ALR oxidase inhibition via reduced H2O2; P55789; purified ALR, DTT oxidation, H2O2 HRP-luminol luminescence; inhibition, % (no concentration beside the values); hit rate 3.8% among 290,000;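 active = mean and each replicate at 75% or more; inconclusive = only one of the two met; inactive = neither met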;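 note: stock transfer was 7.5 nL into about 7.5 µL; 0% = neutral wells and 100% = wells with inactivated enzyme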
Target sequence (P55789 whole entry, looked up): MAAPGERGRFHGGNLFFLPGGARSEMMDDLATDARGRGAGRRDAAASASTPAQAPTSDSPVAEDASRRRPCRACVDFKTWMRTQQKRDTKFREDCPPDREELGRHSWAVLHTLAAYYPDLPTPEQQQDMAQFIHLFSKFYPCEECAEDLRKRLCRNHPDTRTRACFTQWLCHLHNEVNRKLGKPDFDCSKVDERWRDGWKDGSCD
T cruzi inh: blocks replication of Trypanosoma cruzi. inhibition, % (no concentration beside the values). hit rate 1.4% among 300,000. T. cruzi beta-gal in NIH3T3, luminescence, 90 h. AID 1885;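 active = mean inhibition across valid replicates above about 55%, limit read from the data; inconclusive = mean below that limit but half or more replicates reach it; inactive = mean below it, under half of replicates reach it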;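 note: signal also drops with host cell toxicity which is not excluded here; 0% = plate median of DMSO wells and 100% = zero luminescence signal; higher percent means less beta-gal luminescence so fewer parasites; stock transfer was 50 nL into about 50 µL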
rRNA inh HTS: inhibits bacterial ribosomal RNA function over humanized ribosomes; AID 720706; GFP signal change (wild-type ribosome), % (test concentration not listed); hit rate 1.6% among 350,000; E. coli WT GFP vs humanized-ribosome RFP mutants, fluorescence, 24 h; active compounds read low; DMSO median 0, no signal -100;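 active = significant combined selectivity score with lowered wild-type GFP, culture density cut under 30%, mutant RFP and density less affected; inactive = any of these conditions unmet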; note: one replicate is shown; some compounds called inactive have numbers as strong as hits
FGF22 binding: binders of recombinant human FGF22 by thermal shift; calls only at 9.99 µM; SYPRO orange fluorescence; percent of sucrose octasulfate shift, DMSO zero; Q9HCT0; hit rate 1.5% among 340,000;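 active = melting point raised past a set limit in the mean and every replicate; inconclusive = no clear call; three in four hits are not shown here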
Target sequence (Q9HCT0 whole entry, looked up): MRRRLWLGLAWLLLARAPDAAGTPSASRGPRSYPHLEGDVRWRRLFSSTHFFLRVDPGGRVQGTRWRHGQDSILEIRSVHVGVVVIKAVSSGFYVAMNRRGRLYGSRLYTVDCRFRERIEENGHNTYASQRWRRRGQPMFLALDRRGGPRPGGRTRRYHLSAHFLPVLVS
Calb FLC: affects C. albicans growth with fluconazole; C. albicans CaCi-2 (fluconazole-resistant clinical isolate) + fluconazole, Alamar Blue growth, 48 h; growth inhibition, % (concentration not given with the values); hit rate 0.57% among 300,000; AID 1979;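 active = most replicates above 75%; inconclusive = exactly half above 75%; inactive = most below 75%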;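 note: all wells also contain fluconazole at 8 µg/ml as a sub-toxic cotreatment; 0% = median of DMSO wells and 100% = median of geldanamycin control wells; wells of about 8 µL received 7.5 nL stock; the first replicate is given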
Beta apoptosis: beta cell apoptosis inhibition; INS-1E cytokine-induced death, ATP luminescence, 48 h; percent of positive-control rescue, neutral wells zero; protection from apoptosis, % (test concentration not listed); hit rate 0.8% among 300,000;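 active = all replicates at 75% or more, or half of them and the mean; inconclusive = half reach 75% but not the mean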;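 note: 0% = cytokine-treated negative control wells and 100% = positive control rescue; higher means more ATP so stronger rescue from cytokine killing; wells of about 40 µL received 100 nL stock; the first replicate is given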
RanGTP-Impb inh: inhibitors of RanGTP-importin-beta interaction, primary screen, biochemical, FRET, CFP-Ran, YFP-importin-beta, homogeneous | hit rate 1.1% among 300,000 | AID 2216 | cell-free CFP-Ran/YFP-importin-beta FRET ratio | inhibition, % (test concentration not listed);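 active = most replicates above 15%; inconclusive = exactly half above 15%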;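 note: 0% = DMSO wells and 100% = Ran loaded with GDP instead of GTP; wells of about 40 µL received 100 nL stock; the first replicate is given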
AF4-AF9 inh: blocks AF4 peptide binding to human AF9; AID 651704; P42568; inhibition, % at 10 µM; AlphaScreen, biotin-AF4 peptide binding to FLAG-AF9; hit rate 0.47% among 350,000;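 active = every replicate reaching a set inhibition limit, whatever the replicate mean, cut at about 25% in these data; inconclusive = mean inhibition reaches that limit but some replicates miss it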;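 note: 0% = plate neutral control median and 100% = total signal loss; the record names both 10 and 1 µM as test concentration; the first replicate is given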
Target sequence (P42568 whole entry, looked up): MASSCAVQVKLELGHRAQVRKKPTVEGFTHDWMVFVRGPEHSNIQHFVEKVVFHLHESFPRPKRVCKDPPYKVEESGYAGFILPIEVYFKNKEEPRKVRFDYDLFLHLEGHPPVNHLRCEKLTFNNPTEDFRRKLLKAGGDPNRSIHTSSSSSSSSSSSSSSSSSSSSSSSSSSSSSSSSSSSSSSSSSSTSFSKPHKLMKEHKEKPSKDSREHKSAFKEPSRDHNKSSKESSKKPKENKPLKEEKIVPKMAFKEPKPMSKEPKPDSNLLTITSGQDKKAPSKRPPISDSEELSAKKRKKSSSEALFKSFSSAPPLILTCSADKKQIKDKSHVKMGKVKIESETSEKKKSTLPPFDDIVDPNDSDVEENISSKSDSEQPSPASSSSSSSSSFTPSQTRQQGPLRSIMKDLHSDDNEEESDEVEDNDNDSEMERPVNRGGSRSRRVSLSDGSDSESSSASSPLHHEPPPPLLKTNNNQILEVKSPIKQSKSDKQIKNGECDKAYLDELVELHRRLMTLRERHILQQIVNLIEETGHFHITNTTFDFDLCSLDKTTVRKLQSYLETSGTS
rRNA inh HTS OD600: recorded beside rRNA inh HTS, whose call it bears; OD600 change, %; measured here: OD600 growth;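 optical density of the mix in the first replicate; 0 = DMSO median and -100 = no signal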
rRNA inh HTS RFP: recorded beside rRNA inh HTS, whose call it bears; RFP signal change, %; measured here: RFP humanized mutant strains;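 first replicate; 0 = DMSO median and -100 = no signal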
* marks the source's active call; other numbers are inactive results; i = inactive; ? = inconclusive; . = no result given; + = active, no number.

item	Compound	ALR inh	T cruzi inh	rRNA inh HTS	rRNA inh HTS OD600	rRNA inh HTS RFP	FGF22 binding	Calb FLC	Beta apoptosis	RanGTP-Impb inh	AF4-AF9 inh
1	COc1ccc(C2C(C(=O)c3ccco3)=C(O)C(=O)N2CCOCCO)cc1OC (stereo not drawn)	-63.4	-16.3	.	.	.	.	-10.7	-1.6	4.3	.
2	CCCCCCc1cc2cc(C(=O)Nc3ccc(OC)cc3)c(=O)oc2cc1O	-4.6	-3.5	11.3	10.9	11.5	i	-1.4	50.4	40.7*	0.6
3	CCOC(=O)c1cc2nc(-c3ccco3)cc(C(F)(F)F)n2n1	-0.9	-6.1	.	.	.	.	2.2	-0.8	?	.
4	COC(=O)C1CCN(C(=O)CSc2nc3ccc(OC)cc3[nH]2)CC1	35.8	-4.6	5.3	2.4	-0.1	i	10.6	-5.6	-0.4	0.0
5	CC(NC(=O)C(CC(=O)OC(C)(C)C)NC(=O)OC(C)(C)C)C(N)=O (stereo not drawn)	-12.2	-17.2	.	.	.	.	-8.3	-4.0	4.0	.
6	O=C(c1sc2ccccc2c1Cl)N1CCN(CCc2ccccn2)CC1	-1.6	14.4	-12.1	-13.8	-1.9	i	.	-4.1	-0.9	2.7
7	COc1ccccc1C(=O)Nc1ccc2c(c1)CN(Cc1cnc(C)s1)CC2	10.8	31.2	-15.6	-8.9	-0.6	i	-25.9	7.9	3.0	0.3
8	CSCCC1(C(=O)O)NC(c2ccccc2O)C2C(=O)N(C(C)C)C(=O)C21 (stereo not drawn)	64.7	-1.9	1.0	-2.8	3.0	i	0.7	-5.2	0.1	-17.7
9	COc1cccc(CN(CC2CCCO2)C(=O)c2cc3ccccc3oc2=O)c1 (stereo not drawn)	5.5	3.7	-13.4	-6.5	-6.1	i	-2.2	-8.1	3.4	-2.7
10	O=C(O)c1ccccc1C(=O)N1N=C2/C(=C/c3cccc([N+](=O)[O-])c3)CCCC2C1c1cccc([N+](=O)[O-])c1 (stereo not drawn)	78.7*	1.5	-4.6	-5.9	0.7	+	-0.3	-1.7	-1.6	0.8
11	COc1cccc(C(=O)NN2CC(O)=C(c3nc4ccccc4s3)C2=N)c1	-2.8	-2.4	8.0	9.3	1.2	i	22.6	9.6	2.1	-0.8
12	Cc1cccc(OCc2nnc(SC(C)C(=O)O)n2-c2ccccc2)c1 (stereo not drawn)	-0.2	0.2	6.7	6.2	6.0	i	3.7	-6.9	-2.2	-3.1
13	COc1ccc(C(=O)NC2CCN(C(=S)Nc3ccc(C)cc3)CC2)cc1	-3.5	-13.5	18.2	5.6	0.9	i	1.0	-20.5	1.7	-1.3
14	Cc1ccc(/C=C\c2nccc3c2[nH]c2ccccc23)cc1	.	7.8	-33.5	-32.4	-8.0	i	3.8	4.6	-3.4	-23.2
15	Cc1ccc(N2C(=O)C3C(C2=O)C2C=CC3C23CC3)c([N+](=O)[O-])c1 (stereo not drawn)	-5.4	1.8	-1.6	-3.4	-1.0	i	-8.1	1.3	2.5	-0.8
16	COc1ccc(Cl)cc1NC(=O)CN1CCC(n2nnc3cc(F)ccc32)CC1	-2.2	13.1	.	.	.	.	-20.1	9.7	-3.5	.
17	O=S(=O)(c1ccccc1Cl)N1CCCC(c2nc(-c3cccnc3)no2)C1 (stereo not drawn)	-8.1	2.5	.	.	.	.	18.9	-1.8	3.3	.
18	CC(O)c1nc2cc([N+](=O)[O-])ccc2n1Cc1ccccc1 (stereo not drawn)	-15.1	-0.2	1.9	3.0	-1.3	i	-0.4	-0.5	-2.3	-6.3
19	COC(=O)c1ccc(NC(=O)c2ccc(NS(=O)(=O)c3cccc4cccnc34)cc2)cc1	5.1	2.9	.	.	.	.	-7.9	.	-3.9	.
20	Fc1cccc(F)c1CN1CCN(c2ncccn2)CC1	10.1	-9.3	.	.	.	.	-13.7	-0.3	1.1	.
21	CCCc1nnc(SCC(=O)NC2CC2)n1CC	-0.8	-5.3	6.2	7.3	1.7	i	-0.7	-5.8	3.8	0.3
22	CCOC(=O)c1ccc(NC(=O)C(=O)NCc2ccc(/C=C(/C#N)C(=O)NCCOC)o2)cc1	0.4	0.6	12.6	25.3	6.7	i	0.0	-6.5	-1.3	-0.6
23	CCC(C)C(=O)NCCc1ccc(S(N)(=O)=O)cc1 (stereo not drawn)	4.8	-10.9	.	.	.	.	-3.2	-0.7	?	.
24	CS(=O)(=O)N(CC(=O)N1CCN(c2ccccc2)CC1)c1cccc(Br)c1	31.0	-8.5	.	.	.	.	-9.1	-4.0	?	.
25	Cc1c(NC(=O)C(C)OC(=O)/C=C/c2ccco2)c(=O)n(-c2ccccc2)n1C (stereo not drawn)	4.4	-10.4	15.2	7.8	1.4	i	-8.0	3.6	2.7	-3.2
26	CCCCC1CCC(C(=O)N(CC(C)C)c2c(N)n(CCCC)c(=O)[nH]c2=O)CC1 (stereo not drawn)	-0.6	-2.4	4.6	8.0	2.2	i	2.3	0.8	8.7	-2.2
27	O=C(NCCCN1CCCC1=O)C1CCN(S(=O)(=O)c2c(Cl)cccc2Cl)CC1	-6.4	-10.9	5.7	13.6	-0.2	i	0.9	0.2	0.5	-11.4
28	Cc1ccc(CCN2CC(C(=O)NCCC(C)C)CC2=O)cc1 (stereo not drawn)	.	4.8	6.4	7.5	-0.3	i	-9.7	.	-1.7	-2.3
29	CCN(CC)CC(C)OC(=O)c1cc(OC)c(OC)c(OC)c1 (stereo not drawn)	-12.1	-1.6	.	.	.	.	-0.8	-7.1	0.4	.
30	Cc1ccccc1S(=O)(=O)Cc1ccc(C(=O)NCCN(C)Cc2ccccc2)o1	-8.0	17.0	1.9	6.2	-1.2	i	0.3	4.2	2.9	3.8

The list goes on:
Values run as follows: ALR inh | T cruzi inh | rRNA inh HTS | rRNA inh HTS OD600 | rRNA inh HTS RFP | FGF22 binding | Calb FLC | Beta apoptosis | RanGTP-Impb inh | AF4-AF9 inh
31) N/C(=N\c1nc2ccccc2o1)NC(=O)/C=C/c1ccccc1
    -5.7 | -12.7 | 22.5 | 2.9 | 3.8 | i | 0.1 | 4.2 | 4.7 | 1.6
32) O=C(COC(=O)c1ccccc1O)Nc1cccnc1Cl
    -5.2 | -8.6 | . | . | . | . | -5.1 | -1.0 | 4.1 | .
33) CCCCOc1ccc(C(=O)Nc2ccc(CN3CCOCC3)cc2)cc1
    -9.2 | -25.1 | 10.8 | 13.8 | -0.2 | i | -1.3 | . | 2.6 | -0.9
34) Cc1cccc(N2Cc3ccccc3C2=NC(=O)c2ccc(Cl)nc2)c1
    -16.0 | -19.2 | 13.9 | 5.2 | 5.8 | i | -10.0 | -3.3 | -3.2 | 1.7
35) CCC(C)(C)n1nnnc1C(c1ccncc1)N1CCC(C)CC1 (stereo not drawn)
    -1.6 | -18.2 | . | . | . | . | -2.0 | 0.7 | 1.5 | .
36) COc1cc(OC)cc(C(=O)N2CCN=C2SCc2cccnc2)c1
    99.7* | -5.5 | 3.6 | 8.2 | -2.6 | i | 4.4 | -7.4 | 4.7 | -3.9
37) C/C(=C\C(=O)c1ccccc1)NNC(=O)c1ccc(Cl)cc1
    16.0 | 6.6 | 2.8 | -6.8 | -3.4 | i | -0.4 | 0.0 | -3.8 | -1.4
38) CN(CC(=O)Nc1cccc(S(=O)(=O)NC2=NCCCCC2)c1)Cc1ccc(C(C)(C)C)cc1
    -13.9 | 32.8 | -31.6 | -63.3 | 1.4 | i | 11.2 | -2.2 | -0.2 | 2.5
39) CN(C)CCNC(=O)C(=O)NCC1OCCN1S(=O)(=O)c1ccc([N+](=O)[O-])cc1 (stereo not drawn)
    -19.6 | 21.0 | 15.2 | 11.7 | -6.4 | i | -0.3 | -1.9 | -3.7 | 1.9
40) O=C(Nc1nc(-c2ccccc2)cs1)c1cccs1
    1.6 | 10.2 | . | . | . | . | -31.7 | 5.4 | 1.8 | .
41) CCC(C)NC(=O)CN(c1ccc(Cl)c(Cl)c1)S(C)(=O)=O (stereo not drawn)
    -3.8 | -6.3 | 1.7 | -5.8 | -0.9 | i | -20.0 | 5.5 | -1.9 | -0.1
42) CCn1cc(CCC(=O)NC2CCCC2)c2ccccc21
    9.3 | -3.5 | 10.6 | 6.1 | 1.6 | i | -4.1 | -2.5 | -3.2 | 0.5
43) Cc1ccc(CNC(=O)C2CCN(S(=O)(=O)N3CCCC3)CC2)cc1
    1.2 | -15.5 | 8.2 | 1.8 | -0.2 | i | 1.6 | -6.9 | -0.6 | -2.0
44) CCOC(=O)c1c(NC(=O)c2ccn(CC)n2)sc2c1CCCC2
    -0.2 | 34.7 | . | . | . | . | -5.6 | 0.5 | -2.1 | .
45) CN1CCC/C1=C/C=C1\SC(=S)NC1=O
    -9.0 | . | 7.3 | -2.7 | 12.0 | i | . | 0.6 | . | -10.0
46) CC(C)Oc1ccc2c(c1)OC(c1ccccc1)(C(F)(F)F)NC2=O (stereo not drawn)
    . | -0.2 | . | . | . | . | -1.4 | -2.3 | 2.8 | .
47) COc1ccc(S(=O)(=O)n2nc(OC(=O)c3ccccc3)cc2N)cc1
    . | -13.3 | . | . | . | . | 4.8 | -9.0 | -3.0 | .
48) O=C(NCc1cc(C(F)(F)F)ccc1Cl)c1cccc2c1C(=O)c1ccc(N3CCCCC3)cc1S2(=O)=O
    4.1 | . | 3.9 | 5.5 | 12.2 | i | . | 2.5 | . | 1.6
49) COc1cc(C(=O)NC(=S)N2CCN(C)CC2)cc(OC)c1OC
    10.0 | . | 8.3 | 14.9 | 0.1 | i | . | -5.8 | . | -3.0
50) NS(=O)(=O)c1ccc(NC(=S)NNC(=O)CCC(=O)Nc2ccccc2Cl)cc1
    ? | -6.6 | 4.2 | 15.4 | 2.3 | i | -5.7 | 2.7 | 2.0 | -0.2
51) CSc1nc(-c2ccccc2)cc(C(F)(F)F)c1C#N
    -2.4 | 6.0 | . | . | . | . | 29.2 | 0.4 | 2.2 | .

Only part of the results is shown; the hit share may differ from the screen's.
